Source: PubChem BioAssay (ICCB-Longwood Screening Facility, Harvard Medical School)
CapD inh = inhibitors of Bacillus anthracis CapD enzyme; purified CapD enzyme, fluorescence intensity read-out; hits give low values; some hits fall short of the stated cut; AID 492967; actives 0.23% (n = 140,000); z-score (test concentration not listed);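 active = z-score under -4 in either of two replicates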;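 also: stock transfer was 100 nL into about 40 µL; score is relative to mean and spread of the plate; one replicate is shown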
AID504770 = growth inhibitors of E. coli YBA685 in a screen for V. cholerae RctB (chromosome II replication) inhibitors; E. coli YBA685 rctB-dependent plasmid, OD600 growth, 3 h; hits give low values; z-score (test concentration not listed); actives 0.27% (n = 130,000);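 active = z-score under -2 on both plates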;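 also: wells of about 30 µL received 100 nL stock; score is relative to mean and SD of the test wells; the first replicate is given; strong numbers were not always called active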
Starred values were filed as active, the others as inactive; · = no result given. Compounds as they come; 0.39% or so of the library scored in one or more.

structure | CapD inh | AID504770
CCOc1ccc(NC(=O)CC2Oc3ccccc3NC2=O)cc1 (configuration not stated) | -0.45 | -1.1
Nc1ccc(C(=O)/C(=C\c2cccc([N+](=O)[O-])c2)C(=O)c2ccc(-c3ccccc3)cc2)cc1 | -0.17 | ·
CC(C)(C)OC(=O)N1CCN(c2ccc(NC(=O)c3ccco3)cc2)CC1 | · | -0.65
CC(C)n1c(C(F)(F)F)nc2cc(C(=O)N3CCOCC3)ccc21 | 0.3 | -0.55
CCN(CC)c1ccc(C2Nc3ccc4ccccc4c3C3=C2C(=O)CC(C)(C)C3)c(OCc2ccc(Cl)cc2)c1 (configuration not stated) | -0.39 | ·
CC1(C)C2([N+](=O)[O-])CN3CC1([N+](=O)[O-])CN(C2)C3c1cccc([N+](=O)[O-])c1 (configuration not stated) | -0.14 | ·
O=C(CNc1ccc(Cl)cc1)N1CCN(c2ccccc2)CC1 | · | 1.3
COC(=O)CCSc1nc2c3ccccc3ncn2n1 | · | 0.6
COc1cc2c3c(c1OC)-c1cc(O)ccc1CC3NCC2 (configuration not stated) | -0.57 | 0.05
CC(=O)c1ccc(N2CCN(C(=O)c3ccc(Cn4c(=S)[nH]c5ccc(Br)cc5c4=O)cc3)CC2)cc1 | 0.49 | ·
Cc1ccc(NC(=O)C2CCN(S(=O)(=O)c3c(C)nn(C)c3C)CC2)c(Cl)c1 | 1 | 0
CCc1nn(C(CC)C(=O)NC2CCCC2)c(=O)c2cc3oc(C)cc3n12 (configuration not stated) | -0.075 | 0.05
CCCCNC(=O)C1CC(=O)N(CCc2ccccc2)C1 (configuration not stated) | 0.04 | 0.25
COc1ccc(C2C(C#N)=C(C)NC(C)=C2C(=O)Nc2ccccc2)cc1 (configuration not stated) | 27 | -0.4
CCCCC#CCCOC(=O)N1CCN(c2ccc(C(F)(F)F)cn2)CC1 | 1.8 | ·
Cc1ccc(-n2nc(C)c(C(=O)N3CCN(c4ncccn4)CC3)n2)c(C)c1 | · | -1.3
S=c1oc2ccccc2n1Cn1c(=S)oc2ccccc21 | 0.045 | -0.95
CC(C)C(=O)N(C)c1nnc(-c2ccc(F)cc2)s1 | · | -0.15
C=CCn1c(=O)c(C(=O)NC)c(O)c2ccccc21 | 4.6 | -0.5
CCOCC(=O)NCc1ccccc1Cl | 0.48 | 0.25
O=C1NC(=S)N(c2ccccc2)C(=O)/C1=C/C=C/c1ccco1 | -1 | -1.2
FC(F)(F)c1cccc(-c2nn[nH]n2)c1 | 0.31 | ·
N#CC1=C([S-])NC(O)(c2ccccc2)C([n+]2ccccc2)C1c1ccccc1Br (configuration not stated) | 5.9 | ·
COc1ccc(NC(=O)CN(C)C2CCCc3ccccc32)c(OC)c1 (configuration not stated) | · | -0.4
Cc1cccc(C2(c3cccc(C)c3)CC2C(=O)Nc2c(C)cc(C)cc2C)c1 (configuration not stated) | -0.09 | ·
CCC(C)(C)NCC(=O)Nc1ccccc1Br | · | 0.15
Oc1ccccc1C1=Nc2ccccc2N=C(c2ccc(Br)cc2)C1 | 0.39 | ·
CN(C)c1ccc(C2OCCO2)cc1 | -3.9 | -1.8
CCCc1ccc(S(=O)(=O)N2CCC(O)(c3ccc(Cl)cc3)CC2)cc1 | -0.57 | ·
CC(C)CC(C(=O)O)N1C(=O)C2CC=CCC2C1=O (configuration not stated) | 0.69 | -1.6
O=C(O)CC(c1ccccc1Br)N1Cc2ccccc2C1=O (configuration not stated) | 0.58 | 0.45
Cc1ccc(S(=O)(=O)CCSC(=N)N)cc1 | · | -0.3
N#Cc1ccc(C#Cc2ccccc2)cc1 | 1.5 | ·
O=C(CSc1ncn[nH]1)NC1CCCc2ccccc21 (configuration not stated) | 0.47 | -0.2
C=CCn1c(C)cc(C(=O)COC(=O)COc2ccccc2C#N)c1C | · | -0.2
Fc1ccc(C2CC(c3ccc(Cl)cc3)=Nc3nc(-c4ccccc4)cn32)cc1 (configuration not stated) | -3.2 | 0.95
CCCn1c(SCC(=O)N2CCCC2)nnc1C(C)C | · | -3.1*
Cc1ccc2c(Cl)c(C(=O)N(Cc3cccs3)C3CCS(=O)(=O)C3)sc2c1 (configuration not stated) | -0.3 | 0
O=C(NCC1CCCO1)c1cc2c(=O)n3ccccc3nc2s1 (configuration not stated) | · | 0.5
O=C(c1ccccc1)N1CCN(C(=O)c2nn3c(C(F)(F)F)cc(-c4ccco4)nc3c2Br)CC1 | -0.24 | ·

Gathered by group: those above containing a furan ring, fused or not (four)
structure | CapD inh | AID504770
CC(C)(C)OC(=O)N1CCN(c2ccc(NC(=O)c3ccco3)cc2)CC1 | · | -0.65
CCc1nn(C(CC)C(=O)NC2CCCC2)c(=O)c2cc3oc(C)cc3n12 (configuration not stated) | -0.075 | 0.05
O=C1NC(=S)N(c2ccccc2)C(=O)/C1=C/C=C/c1ccco1 | -1 | -1.2
O=C(c1ccccc1)N1CCN(C(=O)c2nn3c(C(F)(F)F)cc(-c4ccco4)nc3c2Br)CC1 | -0.24 | ·

New compounds follow:
structure | CapD inh | AID504770
CCc1nc2sc(C)c(C)c2c(=O)n1N | 0.07 | 1.3
CCOC(=O)c1cnc(SCC(=O)OCN2C(=O)c3ccccc3C2=O)nc1N | · | -1.9
COc1cc(C2NC(=O)NC(C)=C2C(=O)OCC2CCCO2)ccc1OCc1ccccc1 (configuration not stated) | -0.11 | ·
C[C@@H]1O[C@@H](O[C@H]2C[C@@H](O)[C@]3(CO)C4C(CC[C@]3(O)C2)[C@@]2(O)CC[C@H](C3=CC(=O)OC3)[C@@]2(C)C[C@H]4O)[C@H](O)[C@H](O)[C@H]1O (some centres not stated) | 0.18 | 1.6
COc1cc(CN2CCN(CCOC(=O)NCC(C)c3ccccc3)CC2)cc2c1OCO2 (configuration not stated) | -0.79 | ·
CCCCCCSc1nnc(/N=C/NO)s1 | 0.045 | -0.85
Cc1cccc(NC(=O)C2CCCN(c3cnccn3)C2)c1 (configuration not stated) | 23 | 1.4
OCCNC(=S)NC1CCCCC1 | 0.07 | ·
Cc1cccc(NC(=O)COC(=O)Cn2cnc3ccccc3c2=O)c1 | · | 0.35
CN(C(=O)COc1nnc(-c2cccs2)c(-c2cccs2)n1)c1ccccc1 | · | 0.35
CSC(SC)=C1C(=O)OC(C)(C)OC1=O | · | 0.75
COc1ccc(/C(=N/CS(=O)(=O)c2ccc(C)cc2)n2c(=S)nc(-c3ccc(OC)cc3)n(CS(=O)(=O)c3ccc(C)cc3)c2=S)cc1 | 0.9 | ·
COc1cccc2c1OCc1sc3[nH]c(=S)[nH]c(=O)c3c1-2 | 0.55 | -0.9
CC(=O)c1sc(N2N=C(c3cccs3)CC2c2ccc(F)cc2)nc1C (configuration not stated) | 3.7 | ·
CC(C)OC(=O)CSc1nnc(-c2ccccc2)n1Cc1ccco1 | · | -0.2
O=C(CSc1nnc(-c2ccccc2)c(-c2ccccc2)n1)c1ccccc1 | -0.17 | ·
Cc1ccccc1-n1c(=S)sc2c1nc(SCC(=O)N1CCC(C)CC1)n1c3ccccc3nc21 | -0.37 | ·
O=C(CSc1ccccc1)N/N=C/c1ccccc1O | -0.045 | -0.35
NC(=O)c1nnc2ccccc2c1N | -0.025 | 0.3
CC(=O)n1c2ccccc2c2nc(N)sc21 | -1.7 | -1.9

More compounds follow:
SMILES | CapD inh | AID504770
Cc1ccc(C(=O)[C@@H]2[C@@H](c3ccc(F)cc3)C(C#N)(C#N)[C@H]3C=Cc4ccccc4N23)cc1 | 1.3 | ·
Cc1oc(-c2ccc(C(=O)NCCN3CCCCC3)cc2)nc1COc1ccccc1 | 4 | -0.4
O=C(Cc1cn2ccsc2n1)N/N=C1/CCSc2ccc(F)cc21 | · | -0.7
COc1cc(/C=N/N=C(N)N)ccc1OC(=O)c1ccc(C)cc1 | 0.27 | -9.6*
Cc1c(NC(=O)CSc2nc3ccccc3n2C)c(=O)n(-c2ccccc2)n1C | -0.98 | ·
Nc1sc(-c2ccccc2)c(Cc2ccccc2)c1C(=O)O | 0.065 | 1.9
CCOC(=O)N1CCN(C(=O)Cn2c(=O)c3ccccc3n(CC)c2=O)CC1 | 4.8 | ·
CCOC(=O)c1ccc(NC(=O)c2ccc(NC(=O)C3CCCO3)cc2)cc1 (configuration not stated) | -0.22 | -0.8
Cc1c(C(=O)NCc2ccc(N3CCN(C)CC3)cc2)cnn1-c1ccc(Cl)cc1 | -0.085 | -0.8
CCc1c(CSC(=N)N)csc1C | 0.02 | -1.2
CC1CC2(NC(=O)NC2=O)C(C)CN1C (configuration not stated) | · | 0
Cc1cccc(NC(=O)C2COc3ccccc3O2)c1 (configuration not stated) | -0.08 | ·
Clc1cccc(C(c2nnc(-c3ccccc3)o2)N2CCN(c3ccccc3)CC2)c1 (configuration not stated) | -0.36 | 1.4
COc1ccc(/C=N/NC(=O)c2ccc3nonc3c2)cc1C | -1.5 | ·
CCOC(=O)N1CCN(c2nc(-c3ccccc3)c3ccccc3n2)CC1 | -0.53 | ·
COc1ccc(-c2cc(-c3ccccc3)nc(SCC(=O)Nc3cc(C)on3)c2C#N)cc1 | 0.4 | ·
Fc1ccc(-c2nnc3ccc4ccccc4n23)cc1 | 0.97 | ·
O=C(c1c[nH]c2ccc(S(=O)(=O)N3CCc4ccccc43)cc2c1=O)N(Cc1ccco1)CC1CCCO1 (configuration not stated) | -0.07 | ·
COCCOC(=O)C1=C(C)NC2=C(C(=O)CC(c3ccc(Cl)cc3)C2)C1c1ccc(Br)cc1 (configuration not stated) | 2 | ·
NC(=O)c1ccccc1OCCOc1ccccc1 | · | 0.25
O=C(O)CCCC(=O)Nc1cccc2ccccc12 | 0.33 | -0.75
O=S(=O)(c1ccccc1OC(F)(F)F)N1CCCC(O)C1 (configuration not stated) | 0.42 | ·
Cc1noc(C)c1NC(=O)NC(c1ccccc1)c1ccccc1 | 0.39 | -0.6
C=CCNC(=S)NCc1ccccc1 | · | -0.9
C[C@@H]1CCC2[C@](C)(CO)[C@@H](O)CC[C@]2(C)[C@@]12CCC1(COC(=O)C1)O2 (some centres not stated) | -0.12 | -0.1
CNC(=O)c1ccc2c(c1)N=C(C)c1c(C)ccc(C)c1S2 | -0.15 | -1.2
CSc1sc(Br)c2c1C(=O)CCC2 | -0.58 | ·
COc1ccc(C2=NN(C(=O)CSc3nnc(CNC(=O)c4ccccc4)n3C)C(c3ccc(OC)cc3)C2)cc1 (configuration not stated) | 1.5 | ·
Cc1ccc2nc(-c3ccc(NC(=O)c4cccc5c(Br)cccc45)cc3)sc2c1 | 1.8 | ·
CCOC(=O)c1c(C)[nH]c(C(=O)CSc2nccc(C)n2)c1C | · | 2.8
N#Cc1ccc(Nc2nnc(-c3cc4c(ccc5ccccc54)oc3=O)s2)cc1 | 0.015 | ·
CC(CC(N)=O)c1ccccc1 (configuration not stated) | 0.65 | -1

Full records, looked up by structure:
Entry for CCOC(=O)c1c(C)[nH]c(C(=O)CSc2nccc(C)n2)c1C = CapD inh = ·; AID504770 = 2.8
Entry for CSc1sc(Br)c2c1C(=O)CCC2 = CapD inh = -0.58; AID504770 = ·
Entry for CNC(=O)c1ccc2c(c1)N=C(C)c1c(C)ccc(C)c1S2 = CapD inh = -0.15; AID504770 = -1.2

The listing picks up with the two entries that preceded the break.
SMILES | CapD inh | AID504770
N#Cc1ccc(Nc2nnc(-c3cc4c(ccc5ccccc54)oc3=O)s2)cc1 | 0.015 | ·
CC(CC(N)=O)c1ccccc1 (configuration not stated) | 0.65 | -1
COc1ccc(C(=O)c2sc3nc(C)cc(-c4cccs4)c3c2N)cc1OC | -0.27 | ·
COc1ccc(OCC(=O)N=Nc2c(O)n(C)c3ccccc23)cc1 | -0.61 | 0.75
COC(=O)Nc1ccccc1C(=O)N1CCCCC1 | -0.4 | 0.25
O=C(O)C1CC=CCC1C(=O)NNc1ncnc2ccccc12 (configuration not stated) | · | 0.85
COc1ccc(-c2cc(C(=O)Nc3cc(C)on3)c3ccccc3n2)cc1OC | 1 | ·
NC(=O)C1CCN(C(c2ccc(F)cc2)c2nnc(-c3ccccc3)o2)CC1 (configuration not stated) | -0.35 | 0.5
Cc1ccc(NC2CC(C)N(C(=O)c3ccccc3C)c3c(C)cccc32)cc1 (configuration not stated) | 0.58 | ·
NC(=O)c1ccc(C(F)(F)F)cc1 | 0.21 | 0.1
CS(=O)(=O)c1ccc(NC(=O)COc2ccc(C#N)cc2)cc1 | · | -0.85
CCOc1ccc(NC(=O)C(NS(=O)(=O)c2cccs2)c2ccccc2)cc1 (configuration not stated) | -0.52 | -0.7
O=[N+]([O-])C1=Cc2ccccc2OC1c1cccs1 (configuration not stated) | 0 | ·
Cc1cccc(N(CC(=O)Nc2ccc(S(=O)(=O)N3CCCCC3)cc2)S(=O)(=O)c2ccccc2)c1C | -0.58 | ·
Clc1ccc(C=Nc2ccc(-c3cnco3)cc2)cc1 | 1.2 | -0.75
CCn1c(C(=O)O)c(CC(=O)Nc2ccc(Oc3ccccc3)cc2)c2ccccc21 | -0.29 | ·
CCOCCOC(=O)c1ccc(NC(=O)C2COc3ccccc3O2)cc1 (configuration not stated) | 0.29 | ·
CCOC(=O)C1=C(C)NC(SCC(=O)c2ccc(Cl)cc2)=C(C#N)C1CC(C)C (configuration not stated) | -0.33 | ·
CC1=C(CC(=O)N2CCN(C(C)c3ccccc3)CC2)c2cc(F)ccc2/C1=C\c1ccc(S(C)=O)cc1 (configuration not stated) | -1.1 | ·
Cc1nc2cc(C(=O)NCC3CCCO3)ccc2n1-c1ccc(Br)cc1 (configuration not stated) | 0.41 | ·
COc1cc(NC(=O)C2CC(=O)N(c3cccc(C)c3C)C2)c(OC)cc1Cl (configuration not stated) | · | 0
CCOC(=O)C1CCN(C(=O)C2c3ccccc3C(=O)N3CCc4ccccc4C23)CC1 (configuration not stated) | -0.41 | 1.7
